Lassa entry inh – blocks Lassa virus binding to or entry into cells; Lassa virus pseudotype entry inhibition, cell reporter; control for the full effect not named in the record; Potency, µM (top dose mostly 37.9 µM), inactives show at the top dose activity change, negative = inhibition, hits mostly inhibitors; 1.2% of 300,000 active; AID 540256; active means well fitted inhibition curve with a large enough effect; inconclusive means small, poorly fitted or top-dose-only effect, or effect the other way; inactive means flat fitted curve, though single readings scatter; tested in HEK293 cells; also: % is scaled to controls: 0 for no effect and ±100 for the full control effect; nearly all actives have a fitted effect of over 50% in size; luciferase read-out
Cruzain inh noDet – inhibitors of Trypanosoma cruzi cruzain without detergent | P25779 | Potency, µM, inactives show max response, negative = inhibition, most hits filed as inhibitors | 2.3% of 200,000 active | purified cruzain, Z-FR-AMC fluorescence, no detergent;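 also: plate controls were enzyme without inhibitor for no effect and buffer without enzyme for full effect; nearly all actives have a fitted effect of over 40% in size; top concentration of the series not given in the record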
Target sequence (P25779 123-467 limits assumed): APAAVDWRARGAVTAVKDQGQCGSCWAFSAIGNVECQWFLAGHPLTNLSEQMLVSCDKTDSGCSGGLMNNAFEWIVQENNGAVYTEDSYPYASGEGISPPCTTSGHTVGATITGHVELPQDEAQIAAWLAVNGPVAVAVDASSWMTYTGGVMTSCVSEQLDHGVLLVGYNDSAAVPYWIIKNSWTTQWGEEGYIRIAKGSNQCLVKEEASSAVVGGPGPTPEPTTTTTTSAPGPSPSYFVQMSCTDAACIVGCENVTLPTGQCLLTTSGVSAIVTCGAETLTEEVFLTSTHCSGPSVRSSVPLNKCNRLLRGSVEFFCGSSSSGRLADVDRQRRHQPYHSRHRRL
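Purified cruzain at 1.5 nM, pre-incubated 15 min with compound at room temperature in 100 mM sodium acetate pH 5.5, 5 mM DTT, 0.00005% Triton X-100. Reaction started with 2 uM Z-FR-AMC; AMC fluorescence increase over 60 s gives rate.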
MARV entry inh – blocks Marburg virus binding to or entry into cells. Potency, µM (top dose mostly 37.8 µM), inactives show at the top dose activity change, negative = inhibition, hits mostly inhibitors. 1.8% of 300,000 active. Marburg virus pseudotyped entry inhibition, cell reporter; control for the full effect not named in the record; about a third of the inactives were read at about 46 µM; active = well fitted inhibition curve with a large enough effect; inconclusive = small, poorly fitted or top-dose-only effect, or effect the other way; inactive = flat fitted curve, though single readings scatter; tested in HEK293 cells; about a fifth of its hits are not listed in these tables; also: % is scaled to controls: 0 for no effect and ±100 for the full control effect; luciferase read-out
Cruzain Triton – inhibitors of Trypanosoma cruzi cruzain with detergent; P25779; purified cruzain, Z-FR-AMC fluorescence, 0.01% Triton; Potency, µM, without a hit: max response, negative = inhibition, hits mostly inhibitors; 0.43% of 200,000 active;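 also: plate controls were neutral wells for no effect and buffer without enzyme for full effect; nearly all actives have a fitted effect of over 40% in size; top concentration of the series not given in the record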
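Sodium acetate buffer (100 mM, pH 5.5) containing 5 mM DTT and 0.01% Triton X-100 hosted 1.5 nM cruzain and test compound for 15 min at room temperature. Cleavage of 2 uM Z-FR-AMC was then tracked by fluorescence.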
RE007 growth inh – less growth of the S. pombe RE007 Vpr strain; S. pombe RE007 Vpr strain, BacTiter-Glo ATP luminescence, 24 h; control for the full effect not named in the record; Potency, µM (titrated, usually from 92.2 µM), inactives show top-dose activity change, negative = less growth; 0.21% of 360,000 active; active = well fitted falling curve with a large enough effect; inconclusive = small, poorly fitted or top-dose-only effect; inactive = no such curve, though single readings can be large or run the other way;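 also: % is scaled to controls: 0 for no effect and ±100 for the full control effect; nearly all actives have a fitted effect of over 50% in size; the assay follows cell death caused by Vpr and the record does not say whether a fall means rescue or toxicity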
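Fission yeast RE007 carrying one integrated HIV-1 vpr copy, seeded at OD 0.01 in PMG+AL medium with 23 nL pinned compound. Grown 24 h at 30 degrees; viability read by BacTiter-Glo luminescence after 5 min.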
SARS PLpro yeast – inhibitors of SARS-CoV papain-like protease in yeast; 0.19% of 330,000 active; Potency, µM (top dose mostly 32.9 µM), for inactives: top-dose activity, positive = growth rescue; S. cerevisiae expressing SARS-CoV PLpro, growth rescue; control for the full effect not named in the record; active means well fitted rising curve with a large enough effect; inconclusive means small, poorly fitted or top-dose-only effect; inactive means no such curve, though single readings can be large or run the other way; also: 0% is about no effect; nearly all actives have a fitted effect of over 55% in size; growth read by luminescence after 48 h
2A StopGo – lowers the luciferase signal of an FMDV 2A StopGo reporter; human cells with a luciferase reporter of 2A StopGo recoding; control for the full effect not named in the record; Potency, µM (doses to about 57.9 µM), for the others: top-dose signal change, negative = less light; 1.2% of 410,000 active; AID 1159524; active = well fitted falling curve with a large enough effect; inconclusive = small, poorly fitted or top-dose-only effect; inactive = no such curve, though single readings can be large or run the other way; tested in HEK293T cells; also: % is scaled to controls: 0 for no effect and ±100 for the full control effect; nearly all actives have a fitted effect of over 45% in size; luciferase light after 4 h
NS1 function inh – influenza NS1 inhibition | S. cerevisiae slowed by influenza A NS1, growth recovery by OD600 | Potency, µM (highest dose often 46.1 µM), without a hit: at the top dose activity, positive = more growth | 0.4% of 270,000 active | AID 2326; active means well fitted rising curve with a large enough effect; inconclusive means small, poorly fitted or top-dose-only effect; inactive means no such curve, though single readings can be large or run the other way; also: nearly all actives have a fitted effect of over 50% in size
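A cell-based growth assay was used: compounds that relieve NS1-induced slow growth of budding yeast raise OD600. Assay medium was yeast nitrogen base with ammonium sulphate and -URA supplement, pH 6.0, with 2% galactose.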
The depositor's hits bear a star; ? = inconclusive; / = no result given; & = joins results of further samples; [ ] = remark or other dose. Unless noted, calls follow the shape of the dose curve; as a rule, active = well fitted curve in the direction sought with a large enough effect; inconclusive = small, poorly fitted or top-dose-only effect, or another doubt; inactive = no such curve, though single readings can be large; an effect the other way counts as inactive or inconclusive. Potency is read from the fitted curve at half-maximal effect.

SMILES	Lassa entry inh	Cruzain inh noDet	MARV entry inh	Cruzain Triton	RE007 growth inh	SARS PLpro yeast	2A StopGo	NS1 function inh
CCC(=NCc1ccc2c(c1)OCO2)c1c(O)n(C2CCCCC2)c(=O)[nH]c1=O	13µM*	-26%	?	-3.2%	14%	-19%	?	-32%
Cc1ccc2c(C)c(C(=O)NCCN3CCCC(O)C3)oc2c1C (stereo not drawn)	/	/	/	/	-10%	2%	3%	-6%
COc1ccc(NC(=O)C2(c3ccc(NC(=O)c4ccc(OC(C)=O)cc4)cc3)CCCC2)cc1	3%	?	8%	2.1%	-10%	-1%	4%	6%
O=C(CN1C(=O)/C(=C/c2ccc(F)cc2)SC1=S)N1CCN(CCc2ccccn2)CC1	/	/	/	/	-12%	-1%	?	5%
COc1ccc(CNC(=O)CCC(=O)Nc2nnc(C(C)C)s2)cc1	25%	/	?	/	4%	-2%	-7%	2%
COc1ccc(CN(CC(=O)NC2CCCCC2)C(=O)CCC(=O)Nc2nccs2)cc1	?	/	-29%[46.1 µM]	/	6%	0%	-8%	29%
CC1CC(C)CN(C(=O)Cn2ncc3c([nH]c4ccccc43)c2=O)C1 (stereo not drawn)	/	/	/	/	-6%	-5%	-7%	-5%
O=C(c1ccccc1CCc1ccccc1)N1CCN(c2ccccn2)CC1	?	9%	?	-2.0%	-8%	-3%	-26%	-67%
Cc1ccc2[nH]c3c(=O)n4c(nc3c2c1)SCC4	11%[46.1 µM]	/	-17%[46.1 µM]	/	-10%	1%	3%	/
Cn1c(=O)oc2cc(S(=O)(=O)N3CCC(C(=O)NCCc4ccccc4)CC3)ccc21	/	/	/	/	5%	-1%	-3%	0%
COCCCn1c(CCC(=O)O)ccc1-c1cccs1	21%	11%	-3%	-2.9%	2%	-1%	-11%	5%
CCOc1cc(C(=O)NCc2ccncc2)cc(OCC)c1OCC	-11%[14.3 µM]	-4%	-8%	3.5%	-1%	0%	-17%	12%
Cc1cccc(CN2CCc3c([nH]c4ccccc34)C2)c1	?	/	?	/	-21%	11%	-13%	-2%
C#CCSc1nnc(-c2cc3c(C(F)(F)F)nn(C)c3s2)n1C	0%	-3%	-4%	3.1%	47%	-6%	-1%	-13%
NC(=O)c1ccc(NCCCN2CCOCC2)c([N+](=O)[O-])c1	6%	/	2%	/	-5%	-1%	-17%	1%
Cc1ccn2c(=O)nc(SCC(=O)NCc3ccccc3Cl)nc2c1	6%	/	13%	/	2%	8%	-17%	/
CSc1ccc(C(=S)N2CCN(Cc3ccccc3)CC2)cc1	16µM*	-7%	-5%	-7.2%	5%[3.69 µM]	12%	-11%	-3%
Cc1c(NC(=O)c2ccc(S(=O)(=O)Nc3ccccc3F)cc2)c(=O)n(-c2ccccc2)n1C	-18%	/	-6%	/	-7%	1%	-20%	/
C=C(C)COc1ccc(-c2[nH]ncc2Oc2ccccc2OCC)c(O)c1	?	11%	?	-4.5%	?	-21%	-9%	-136%
NS(=O)(=O)c1ccc(CCNC(=O)CCCOc2ccccc2)cc1	3%	/	11%[46.1 µM]	/	12%	-1%	36%[activator]	/
N#Cc1ccsc1NC(=O)CCN1CCN(C(c2ccccc2)c2ccccc2)CC1	?	/	10µM*	/	6%	-4%	-20%	-18%
CCN(CC(=O)Nc1ccccc1C(=O)OC)S(=O)(=O)c1ccccc1	-18%	-11%	?	-1.7%	-11%	2%	/	-31%
O=C(Nc1ccccc1)C1CCCN(S(=O)(=O)c2ccc(-n3cnnn3)cc2)C1 (stereo not drawn)	4%	0%	-23%	1.4%	8%[3.69 µM]	-1%	-19%	5%
O=C(CSc1c2c(nc3ccc(Cl)cc13)CCCC2)NCc1ccco1	?	-12%	?	-9.3%	-3%	6%	25µM*	-12%
C=C(C)COc1ccc(-c2nc(N)ncc2-c2ccc(Cl)cc2)c(O)c1	/	/	/	/	?	-6%	-15%	9%
Cc1ccc(-n2c(O)c(/C=N/NC(=O)C3COc4ccccc4O3)c3ccccc3c2=O)cc1 (stereo not drawn)	-23%	12%	?	-7.5%	-9%	?	-21%	?
Cc1ccc(S(=O)(=O)c2nc(S(C)(=O)=O)sc2N2CCCCC2C)cc1 (stereo not drawn)	/	/	/	/	-2%	0%	-10%	-7%
CCOC(=O)Cc1n[nH]c(=O)c2ccccc12	21%[46.1 µM]	/	-3%	/	2%	-4%	-6%	/
c1cc(CN2CCN(C3CCCCCC3)CC2)ccn1	-2%	/	-19%	/	0%	2%	2%	/
O=C(c1cnc(N2CCOCC2)c2ccccc12)N1CCN(c2ccccc2)CC1	-11%[46.1 µM]	10%	/	-2.5%	/	/	?	/
CC(C(=O)N1CCOCC1)N1C(=O)C2C3CC(C(Br)C3Br)C2C1=O (stereo not drawn)	15%	0%	2%	-1.3%	5%	5%	5%	7%
CCC(=O)c1cn(CC(=O)Nc2ccc(C)cc2)c2ccccc12	9%	/	0%	/	3%	1%	-6%	7%
O=C(c1ccccc1)N1CCN(C(=S)NCc2ccc3c(c2)OCO3)CC1	2%	-7%	-4%	-0.2%	4%	-2%	9%	11%
CC(=O)Nc1ccc(S(=O)(=O)N2CCN(C(=O)Cc3ccccc3)CC2)cc1	-27%	2%	-2%	-1.2%	12%	1%	-14%	4%
O=[N+]([O-])c1ccccc1S(=O)(=O)N1CCN(c2ccc(F)cc2)CC1	-9%[46.1 µM]	/	-7%[46.1 µM]	/	6%	-9%	-22%	-31%
Cc1ccc(-n2ncc3c2ncn2c(C)nnc32)cc1C	-12%	5%	-10%	-15%	-15%	1%	/	-10%
Cc1ccccc1Cn1c(=O)n(Cc2ccc(Cl)cc2)c(=O)c2cccnc21	/	19%	-2%[46.1 µM]	0.2%	/	/	-20%	/
CC1=C(C(=O)N(C)Cc2ccccc2)C2(CCC(C)CC2)OC1=O (stereo not drawn)	/	4%	/	-4.4%	8%	25%	-18%	-11%
O=S(=O)(c1ccccc1)c1nc(-c2cccc(Cl)c2)oc1N1CCOCC1	?	-8%	?	-0.3%	-8%	0%	-19%&6%	4%
Cc1ccc(N2C(=O)CCSC23C(=O)N(Cc2ccccc2)c2ccccc23)cc1 (stereo not drawn)	?	-10%	/	-0.4%	/	/	8%	/
Cc1ccc(N2Cc3ccccc3C2=S)cc1	?	/	?	/	-27%	0%	14%	/
C=C(c1ccc(OC)cc1)c1ccc(OC)cc1	-23%	-19%	-6%	4.1%	5%	4%	24%	3%
CCC(=O)NCCc1cc2ccc(C)cc2[nH]c1=O	/	-13%	/	4.4%	3%	-3%	-17%	-3%
O=C(O)COCC(=O)NCc1csc2ccccc12	?	/	0%[46.1 µM]	/	-2%	4%	-15%	2%
CCOc1ccc(S(=O)(=O)Nc2cc3c(C(=O)OCc4ccccc4)c(C)oc3c3ccccc23)cc1	?	-2%	?	-2.4%	/	/	6%	/
Cc1ccc(S(=O)(=O)Cc2ccc(C(=O)NCc3ccc4c(c3)OCO4)o2)cc1	-4%	-11%	-22%	-6.6%	0%	6%	-20%	3%
COc1ccc(-c2nc(-c3cccs3)c(-c3cccs3)[nH]2)cc1OC	?	12%	?	-3.1%	-7%	9%	-23%	6%
O=S(=O)(NCc1cccnc1)c1ccc(Cl)c(Cl)c1Cl	-4%	-1%	-22%[46.1 µM]	-2.5%	-14%	2%	0%	-7%
O=C(NC1CCCc2ccccc21)c1ccc(=O)[nH]c1 (stereo not drawn)	?	-7%	1%[46.1 µM]	4.9%	10%	-1%	3%	-6%
COC(=O)c1ccc2c(c1)C(C)(C)C(/C=C/c1ccc(OC)c(OC)c1OC)=[N+]2C	?	18%	?	-3.7%	1%	-5%	16µM*	-9%
COC(=O)c1c(C)[nH]c(C)c1-c1cccc([N+](=O)[O-])c1	-5%	/	0%[14.2 µM]	/	?	-20%	?	/
COc1ccc(OCCCC(=O)NNC(=O)CCN2CCN(c3ccccc3)CC2)cc1	-2%	/	26%	/	5%	-1%	-16%	-2%
O=C(NC(=S)Nc1ccc2[nH]c(=O)[nH]c2c1)c1ccccc1Cl	-1%	/	?	/	5%	-2%	-8%	4%
COCCNC(=O)c1cnn(-c2cccc(C)c2)c1-n1cccc1	19%[46.1 µM]	3%	/	0.9%	/	/	12%	/
N/C(=N\OC(=O)c1cccs1)c1ccccc1	?	-2%	?	-3.6%	?	-74%	?	-34%

Of the compounds above, these contain an aryl methoxy group.
SMILES	Lassa entry inh	Cruzain inh noDet	MARV entry inh	Cruzain Triton	RE007 growth inh	SARS PLpro yeast	2A StopGo	NS1 function inh
COc1ccc(NC(=O)C2(c3ccc(NC(=O)c4ccc(OC(C)=O)cc4)cc3)CCCC2)cc1	3%	?	8%	2.1%	-10%	-1%	4%	6%
COc1ccc(CNC(=O)CCC(=O)Nc2nnc(C(C)C)s2)cc1	25%	/	?	/	4%	-2%	-7%	2%
COc1ccc(CN(CC(=O)NC2CCCCC2)C(=O)CCC(=O)Nc2nccs2)cc1	?	/	-29%[46.1 µM]	/	6%	0%	-8%	29%
C=C(c1ccc(OC)cc1)c1ccc(OC)cc1	-23%	-19%	-6%	4.1%	5%	4%	24%	3%
COc1ccc(-c2nc(-c3cccs3)c(-c3cccs3)[nH]2)cc1OC	?	12%	?	-3.1%	-7%	9%	-23%	6%
COC(=O)c1ccc2c(c1)C(C)(C)C(/C=C/c1ccc(OC)c(OC)c1OC)=[N+]2C	?	18%	?	-3.7%	1%	-5%	16µM*	-9%
COc1ccc(OCCCC(=O)NNC(=O)CCN2CCN(c3ccccc3)CC2)cc1	-2%	/	26%	/	5%	-1%	-16%	-2%

Bioassay records as filed in PubChem BioAssay.
